TSHR ag – activates the human thyroid stimulating hormone receptor; 73,000 compounds, 0.48% hits; HEK293-CNG-TSHR cells (CNG channel as cAMP sensor), membrane potential dye, cAMP; P16473; AID 926; Potency, µM (highest dose often 57.1 µM), inactives show at the highest dose activation, usual class: activators; active = well fitted activation curve of enough size with the parental cells flat; inconclusive = any curve in the parental cells; inactive = parental cells flat and receptor cells flat or falling; further: potency means the concentration at half of the fitted maximal effect; % of control where 0% means no effect; weak receptor curves with flat parental cells got no call and are not listed
Target sequence (P16473 whole entry, looked up): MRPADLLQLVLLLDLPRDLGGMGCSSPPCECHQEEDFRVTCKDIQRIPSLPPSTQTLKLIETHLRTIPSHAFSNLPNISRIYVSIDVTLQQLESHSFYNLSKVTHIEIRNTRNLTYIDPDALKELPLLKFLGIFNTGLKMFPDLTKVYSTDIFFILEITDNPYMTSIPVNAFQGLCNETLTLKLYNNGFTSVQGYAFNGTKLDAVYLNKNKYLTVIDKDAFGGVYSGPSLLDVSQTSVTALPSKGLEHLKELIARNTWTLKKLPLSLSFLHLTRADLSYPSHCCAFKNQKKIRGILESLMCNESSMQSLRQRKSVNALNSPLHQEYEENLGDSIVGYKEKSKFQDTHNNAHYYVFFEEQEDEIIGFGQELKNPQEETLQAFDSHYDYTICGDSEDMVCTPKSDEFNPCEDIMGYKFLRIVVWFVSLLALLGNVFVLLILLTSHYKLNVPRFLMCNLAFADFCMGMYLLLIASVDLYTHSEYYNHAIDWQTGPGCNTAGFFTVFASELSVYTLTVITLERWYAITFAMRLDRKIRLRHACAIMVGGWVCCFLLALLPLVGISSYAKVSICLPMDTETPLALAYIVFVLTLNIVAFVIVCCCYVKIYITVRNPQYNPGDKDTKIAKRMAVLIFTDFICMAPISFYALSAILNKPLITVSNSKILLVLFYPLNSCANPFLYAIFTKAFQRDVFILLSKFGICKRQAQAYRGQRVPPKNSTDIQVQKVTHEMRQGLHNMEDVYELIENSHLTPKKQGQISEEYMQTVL
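HEK 293 cells stably expressing TSHR and a cAMP-gated CNG channel; parental CNG-only cells as counterscreen. Cells preloaded 60 min with membrane potential dye plus 100 uM RO 20-1724, then compound 30 min; fluorescence read at 590 nm.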
A647 fluor – compound fluoresces in the A647 spectral region | max dye-equivalent concentration, M | 59,000 tested, under 10 active | AID 592 | Compound fluorescence, A647 channel (570/671 nm), Tris buffer; active means above 1 µM dye equivalent; inconclusive means 0.1 to 1 µM; inactive means 0.1 µM or less;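 further: values scaled relative to a standard on each plate; highest value over a series up to 38 µM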
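Tris 100 mM pH 8.0; cpd + A647 stds pin-transferred; 15 min RT; CCD imager, ex 570/em 671. Output = A647-equivalent conc. per cpd conc.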
Resorufin fluor – compound fluoresces in the resorufin spectral region | Compound fluorescence, resorufin region 547/598 nm, buffer; active compounds read high | max dye-equivalent concentration, M | 59,000 compounds, 0.04% hits; active = above 10 nM dye equivalent; inconclusive = 1 to 10 nM; inactive = 1 nM or less; a few of its hits are not listed in these tables; further: highest value over a series up to 38 µM
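Read-out: intrinsic compound fluorescence at ex 547/em 598 nm after 15 min at RT in pH 8.0 Tris (100 mM). Values expressed as resorufin-equivalent concentration from per-plate standard series.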
A488 autofl – compound autofluorescence in A488 spectral region | 59,000 compounds, 0.1% hits | compound autofluorescence, A488 spectral region, dye equivalency; active compounds read high | max dye equivalency, M; active = above 10 nM dye equivalent; inconclusive = 1 to 10 nM; inactive = 1 nM or less; about half of its hits are not listed in these tables;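 further: highest value over a series up to 38 µM; compound alone in buffer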
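Read-out: relative fluorescence at 480/540 nm, expressed as Alexa 488 dye-equivalent concentration from a six-point A488 standard included per plate. Conditions: 100 mM Tris, pH 8.0; 15 min incubation, room temperature.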
AID923 – qHTS Assay for Allosteric/Competitive Inhibitors of Caspase-1: Spectroscopic Profiling in AFC Spectral Region | compound fluorescence, AFC spectral region (405/520 nm); almost no hit is shown here | Potency, µM (series often up to 57.5 µM), without a hit: at the top dose fluorescence increase, most hits filed as activators | 75,000 compounds, 1.1% hits; active means well fitted activation curve with a large enough effect; inconclusive means small, poorly fitted or top-dose-only effect;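 further: potency means the concentration at half of the fitted maximal effect; 0% is about no effect; scaled to a free AFC standard on each plate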
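Compound autofluorescence profiled at 405 nm ex/520 nm em during kinetic caspase 1 run (50 nM enzyme, 5 uM Ac-WEHD-AFC, HEPES pH 7.5, 10 mM DTT). Titration up to 57 uM; baseline from regression intercept, normalized to AFC standard curve.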
* = called active by the depositor; i = inactive; ? = inconclusive; . = not tested or not shown; [ ] = remark or other dose.

SMILES	TSHR ag	A647 fluor	Resorufin fluor	A488 autofl	AID923
CCc1ccc(N(CC(=O)NC)S(C)(=O)=O)cc1	14%	1e-09	i	i	0.4%
COC(=O)[C@H](Cc1ccccc1)NC(=O)[C@@H](C)CO	-7%[11.4 µM]	.	.	.	-3.2%[11.5 µM]
O=C(CCCc1c[nH]c2ccccc12)N1CCN(S(=O)(=O)c2cccs2)CC1	9%	1.5e-08	i	i	-1.2%
Cc1cc(C2CCCCC2)n(O)c(=O)c1	?	2.1e-09	i	i	-1.8%
O=C(O)c1cc(NCc2cccs2)ccc1N1CCOCC1	2%	3.5e-08	i	i	5.1%
CCC1Sc2ccccc2N(CC(=O)NCCC(C)C)C1=O (stereo not drawn)	?	1.4e-08	i	i	-0.8%
CC12CCC(C(=O)Nc3ccccc3N3CCOCC3)(CC1=O)C2(C)C (stereo not drawn)	6%	.	.	.	0.8%
CCn1c(=O)cc(SCC(=O)NCCN2CCN(Cc3ccccc3)CC2)c2ccccc21	?	3.7e-09	i	i	1.7%
CS(=O)(=O)N1CCC[C@@]2(CCN(C(=O)Nc3cccc(F)c3)C2)C1	0%	2.7e-08	i	i	-0.8%
COc1ccccc1NC(=O)CSc1nnc(C2CCCCC2)n1C	13%	1.5e-08	i	i	-0.4%
O=C(c1ccncc1)N1CCC2(CCCN(c3ccc(-c4ccccc4)cc3)C2)CC1	18%	1.5e-08	i	i	0.7%
COc1cc(C(=O)NCc2ccco2)c(Br)c(OC)c1OC	2%	.	.	.	2.7%
COCCN1CSC(=S)N(Cc2ccco2)C1	2%	1e-09	i	i	4.5%
NC(=O)CSc1nnc(Cc2csc(Nc3ccccc3)n2)n1Cc1ccccc1	10%	1e-08	i	i	-0.1%
N#Cc1cc2c(nc1SCc1cccnc1)CCCC2	?	1e-09	i	i	0.9%
CC(Oc1ccccc1)C(=O)NCc1cccnc1 (stereo not drawn)	1%	1.4e-08	i	i	-1.5%
CC1CN(C(c2ccco2)c2sc3ncnn3c2O)CC(C)O1 (stereo not drawn)	3%	.	.	.	-1.7%
N#Cc1nc(COc2ccc(F)cc2)oc1N1CCCC1	?	2.4e-09	i	i	0.9%
COC(=O)c1cc2oc(C)cc2n1CC(=O)N(C)c1ccccc1	14%[11.4 µM]	2.1e-09	i	i	1.2%
Cc1ccc(N(C(=O)CCC(=O)Nc2cc(C)on2)C(C(=O)NC2CCCC2)c2ccncc2)cc1 (stereo not drawn)	1%	2.5e-08	i	i	0.2%
O=C(Oc1ccccc1)N1CCC2(CCCN(c3ccncc3)C2)CC1	?	1e-09	i	i	-0.8%
CCCCNc1nc(C)nc2c1nc(-c1ccccc1)n2CCCCN(CC)CC	?	.	.	.	-0.4%
CCOC(=O)CCCCC1=CC2=CC(=O)C(C)(O)C(=O)C2=CO1 (stereo not drawn)	-6%[11.4 µM]	.	.	.	1.5%[11.5 µM]
Fc1ccccc1N1CCN(c2nc3ccccc3n3nnnc23)CC1	?	3.1e-08	i	i	6.4%
Cn1c(SCC(=O)Nc2ccccc2F)nnc1-c1cccnc1	-4%	.	.	.	1.2%
SMILES	TSHR ag	A647 fluor	Resorufin fluor	A488 autofl	AID923
O=c1c2[nH]c3ccc(Cl)cc3c2ncn1CCN1CCCCC1	1%	1e-09	i	i	-1.1%
CC1CCN(c2ncccc2C(=O)O)CC1	-5%	8.3e-09	i	i	-1.0%
Cc1c(CC(C)(C)C(=O)O)n(Cc2ccc(Cl)cc2)c2ccc(F)cc12	?	5e-08	i	i	-3.4%
CC(C)NS(=O)(=O)c1ccc(OCC(=O)Nc2ccccc2F)cc1	1%	1e-09	i	i	-1.6%
Cc1ccc(N2CC(C(=O)OCC(=O)C(C)(C)C)CC2=O)cc1C (stereo not drawn)	15%	5.5e-09	i	i	0.5%
O=C(CN1CCOCC1)Nc1ccccc1NC(=O)C1CCN(c2ncccn2)CC1	4%	1.7e-08	i	i	-0.7%
COC(=O)[C@H](C)NC(=O)Nc1ccccc1C(F)(F)F	-2%	1e-09	i	i	-1.1%
CCN=C(NCC)SC1CC(=O)N(c2cccc(OCC)c2)C1=O (stereo not drawn)	-5%	.	.	.	1.3%
Cc1noc(C)c1S(=O)(=O)N(CC(=O)NCc1ccc2c(c1)OCO2)c1ccc(C(C)C)cc1	?	.	.	.	3.0%
COc1ccc(N(CC(=O)Nc2ccc(F)c(Cl)c2)S(=O)(=O)c2c(C)noc2C)cc1	18%	2.9e-08	i	i	-0.3%
CCOC(=O)c1c(C)c(C(=O)NCCCOC)c(C)n1C	7%[11.4 µM]	1e-09	i	i	-0.2%
COc1ccccc1NC(=O)N1CCCC1C(=O)Nc1ccc(NC(C)=O)cc1 (stereo not drawn)	1%	2.5e-09	i	i	-2.4%
c1ccc(CNc2nc3ccccc3n2CCN2CCOCC2)nc1	3%	1e-09	i	i	0.8%
COc1cccc(/C(O)=C2/C(=O)C(=O)N(c3cc(C)on3)C2c2cccs2)c1 (stereo not drawn)	?	2e-09	i	i	-2.3%
Cc1ccc(C(=O)OCC(=O)NCc2ccc3c(c2)OCO3)s1	3%	5.6e-08	i	i	0.9%
C=C(C)COc1ccc(-c2[nH]ncc2-c2ccc(OC)c(OC)c2)c(O)c1	17%	1e-09	i	i	-3.0%
N/C(Cn1nnc(-c2ccccc2)n1)=N\O	-2%	1.2e-09	i	i	0.4%
O=C(NCCSCc1ccco1)Nc1cccc(Cl)c1	3%	6.6e-09	i	i	0.1%
NC(=O)c1nn(-c2ccccc2)nc1N	-7%	4.9e-09	i	i	0.1%
CCOC(=O)N1CCC(c2nc3ccccc3[nH]2)CC1	1%	1e-09	i	i	1.8%
CCCC(C(=O)NC1CCCCC1)N(Cc1ccco1)C(=O)CNS(=O)(=O)c1ccccc1 (stereo not drawn)	?	4.1e-09	i	i	1.0%
CCOC(=O)c1sc(NC(=S)n2cc(C)cn2)c(C(=O)OCC)c1C	1%	3.6e-09	i	i	-0.8%
O=C1CCC(C(=O)Nc2cccc(C(F)(F)F)c2)N1 (stereo not drawn)	-9%	.	.	.	1.5%
CC(=O)Nc1ccc2c(c1)nc(CCN1CCN(C)CC1)n2C	13%	1e-09	i	i	0.7%
COc1cc2c(cc1NC(=O)COC(=O)C1CC(=O)N(Cc3ccco3)C1)oc1ccccc12 (stereo not drawn)	-7%	1e-09	i	i	2.0%

The closing five records of the part before lead into the next:
SMILES	TSHR ag	A647 fluor	Resorufin fluor	A488 autofl	AID923
CCCC(C(=O)NC1CCCCC1)N(Cc1ccco1)C(=O)CNS(=O)(=O)c1ccccc1 (stereo not drawn)	?	4.1e-09	i	i	1.0%
CCOC(=O)c1sc(NC(=S)n2cc(C)cn2)c(C(=O)OCC)c1C	1%	3.6e-09	i	i	-0.8%
O=C1CCC(C(=O)Nc2cccc(C(F)(F)F)c2)N1 (stereo not drawn)	-9%	.	.	.	1.5%
CC(=O)Nc1ccc2c(c1)nc(CCN1CCN(C)CC1)n2C	13%	1e-09	i	i	0.7%
COc1cc2c(cc1NC(=O)COC(=O)C1CC(=O)N(Cc3ccco3)C1)oc1ccccc12 (stereo not drawn)	-7%	1e-09	i	i	2.0%
Cc1ccc2cc(CN(C(=O)c3ccco3)c3ccccc3C)c(=O)[nH]c2c1	.	9e-09	i	i	.
C[C@@]12C[C@H](O)[C@@H]3[C@H](CCC4=CC(=O)CC[C@]43C)[C@H]1CC[C@@H]2c1csc(-c2ccccc2)n1	3%[11.4 µM]	1e-09	i	i	-1.7%[11.5 µM]
O=C(CCCSc1nc2ccccc2s1)Nc1nccs1	5%	1.4e-08	i	i	-0.9%
CCOc1ccccc1NC(=O)CSc1nnc(-c2ccco2)n1Cc1ccco1	7%	4.9e-09	i	i	1.8%
CCOC(=O)C1CCN(C(=O)Nc2ccccc2Cl)CC1	?	.	.	.	-1.5%
Cc1nnc(NC(=O)NC(C)N2C(=O)C3C4C=CC(C4)C3C2=O)s1 (stereo not drawn)	-2%	5.5e-09	i	i	0.8%
COC(=O)NC(c1cccc(C)c1)[C@]1(C(C)=O)CCOC1=O (stereo partly drawn)	3%[11.4 µM]	.	.	.	-2.9%[11.5 µM]
O=C(Nc1ccc2nc[nH]c2c1)c1ccco1	-2%	2.9e-08	i	i	0.5%
COCCn1nnnc1CN1CCC(O)(c2cccc(C(F)(F)F)c2)CC1	0%	2.8e-09	i	i	0.1%
O=C(CCN1C(=O)c2ccccc2C1=O)NCc1ccncc1	?	.	.	.	2.4%
Cc1ccc(C(=O)Nc2c(C)n(C)n(-c3ccccc3)c2=O)cc1S(=O)(=O)N1CCOCC1	6%	2.6e-08	i	i	0.1%
CCOC(=O)c1c(C)oc2c(F)c(F)c(F)c(F)c2c1=O	-14%	7.2e-09	i	i	-2.4%
COc1ccc(OC)c(S(=O)(=O)N(C)CC(=O)N2CCN(c3ccccc3)CC2)c1	7%	1e-09	i	i	-1.1%
NC(=O)CC1NC(=O)c2ccccc21 (stereo not drawn)	-4%	.	.	.	-0.2%
O=C(CN1C2CCC1CC(NC(=O)Nc1ccccc1)C2)NCc1ccco1 (stereo not drawn)	6%	4e-08	i	i	1.0%
CCOC(=O)CNC(=O)Nc1cccc(Cl)c1C	9%	5.8e-08	i	i	0.8%
O=S(=O)(c1cc(F)cc(F)c1)N1CCN(c2ncccn2)CC1	2%	2.1e-09	i	i	-0.6%
Cc1cc(C)c2nc(N3CCCC(C(=O)NCCN4CCOCC4)C3)sc2c1 (stereo not drawn)	0%	1e-09	i	i	1.2%
c1ccc(CC2CCN(C(c3cccs3)c3nnnn3C3CCCC3)CC2)cc1 (stereo not drawn)	?	1e-09	i	i	0.4%
CCOC(=O)c1sc(N)c(C(=O)OCC)c1COC(=O)C1CC(=O)N(Cc2ccco2)C1 (stereo not drawn)	9%	5.3e-09	i	i	-1.5%
Cc1cc(C(F)(F)F)nn1CCCNC(=O)c1cnccn1	13%	.	.	.	-0.1%
CCOC(=O)Cc1c(C)nc(-c2ccccc2)[nH]c1=O	?	6.8e-08	i	i	1.0%
O=C(CN1C(=O)NC2(CCCCC2)C1=O)NCCC1=CCCCC1	13µM*	4.2e-08	i	i	1.7%
CCCCc1c(C(=O)O)cc(OC)cc1C(=O)O	1%	2.3e-09	i	i	3.1%
Cc1nc2ccccc2c(=O)n1NS(C)(=O)=O	-1%	9e-08	i	i	-1.9%
SMILES	TSHR ag	A647 fluor	Resorufin fluor	A488 autofl	AID923
O=C(COc1ccc(Cl)cc1)Nc1ncccn1	4%	1e-09	i	i	0.5%
c1nc(COc2nsnc2N2CCOCC2)cs1	-5%	3e-09	i	i	-3.0%
O=C(Nc1cccc2cccnc12)c1cccc(N2C(=O)CCC2=O)c1	3%	6.4e-09	i	i	0.1%
O=C(NC1CC2CCCC(C1)N2Cc1cccs1)N1CCOCC1 (stereo not drawn)	1%	1.6e-09	i	i	0.7%
Cc1ncoc1C(=O)NCc1ccccc1Cl	2%	9.2e-09	i	i	1.3%
N=c1c2c(-c3ccccc3)c(-c3ccccc3)oc2ncn1CCN1CCOCC1	11%	2e-08	i	i	1.7%
COc1ccc(CN(Cc2ccccn2)C(=O)CN2C(=O)C(C)Oc3ccccc32)cc1 (stereo not drawn)	?	1e-09	i	i	1.7%
CC1C=CC(C)C(C(=O)O)C1C(=O)O (stereo not drawn)	-3%	.	.	.	1.0%
COc1cc(C(=O)CSc2nnc(-c3ccc(O)cc3)n2CC2CCCO2)ccc1NC(C)=O (stereo not drawn)	13%	2e-08	i	i	0.3%

Part of the list above, showing only Resorufin fluor, AID923 and TSHR ag:
structure	Resorufin fluor	AID923	TSHR ag
O=C(Nc1cccc2cccnc12)c1cccc(N2C(=O)CCC2=O)c1	i	0.1%	3%
CC1C=CC(C)C(C(=O)O)C1C(=O)O (stereo not drawn)	.	1.0%	-3%
O=C(COc1ccc(Cl)cc1)Nc1ncccn1	i	0.5%	4%

High-throughput results: PubChem, National Center for Advancing Translational Sciences (NCATS)

An excerpt; rates above refer to the full screens.
